Assay outcomes (PubChem BioAssay)
Anthrax LT inh – blocks cellular internalization of anthrax lethal toxin; Cells, anthrax lethal toxin internalization, FRET ratio (460/530); Potency, µM (titrated, usually from 40 µM), without a hit: top-dose activity change, negative = inhibition, hits mostly inhibitors; hit rate 0.67% among 70,000; AID 912; active = well fitted falling ratio curve with the 530 nm signal flat; inconclusive = other ratio curves, or a change in one channel alone; inactive = flat curves in the ratio and both channels; the % refers to the ratio; further: on the % scale 0 is the no-effect control and ±100 the full control effect; nearly all actives have a fitted effect of over 50% in size; tested in ME-180 cells; beta-lactamase reporter
Prx2 Sm inh – inhibitors of Schistosoma mansoni peroxiredoxin 2; Potency, µM; S. mansoni Prx2 activity coupled to TGR/GSH (TGR is thioredoxin glutathione reductase), NADPH fluorescence loss, qHTS; some inactives read as strong as hits; hit rate 0.07% among 65,000; active means full or partial inhibition curve with a strong effect at the top dose; inconclusive means weaker partial or single-point curve; inactive means no accepted curve; further: series up to 57 µM; many of its hits are not listed in these tables
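qHTS, coupled TGR/Prx2 format; 15 min compound preincubation at RT; reaction started with H2O2 (2.5 mM aliquot); kinetic NADPH fluorescence decrease, ex 365/em 450 nm.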
The depositor's hits bear a star; ? = inconclusive; . = no result given; & = joins results of further samples; [ ] = another dose, or the depositor's remark. Potency means the concentration at half of the fitted maximal effect. An excerpt; rates above refer to the full screens.

A first look:
SMILES	Anthrax LT inh	Prx2 Sm inh
COc1ccccc1C(=O)N1CCN(c2cccc(Cl)c2)CC1	-9%	>57
N#Cc1ccc(OCC(=O)NCCc2ccc(S(N)(=O)=O)cc2)cc1	1%	>57
COC(=O)C1(CCSC)NC(c2ccc(O)cc2)C2C(=O)N(c3ccc4c(c3)OCCO4)C(=O)C21 (centres undefined)	-7%	>57
FC(F)Oc1ccc(-c2csc(Cc3nnc4n3CCCCC4)n2)cc1	-1%	>57
COc1ccc2nc(SCC(=O)Nc3ccc(S(=O)(=O)Nc4onc(C)c4C)cc3)[nH]c2c1	-2%	>57

The whole of this part, from the first entry:
SMILES	Anthrax LT inh	Prx2 Sm inh
COc1ccccc1C(=O)N1CCN(c2cccc(Cl)c2)CC1	-9%	>57
N#Cc1ccc(OCC(=O)NCCc2ccc(S(N)(=O)=O)cc2)cc1	1%	>57
COC(=O)C1(CCSC)NC(c2ccc(O)cc2)C2C(=O)N(c3ccc4c(c3)OCCO4)C(=O)C21 (centres undefined)	-7%	>57
FC(F)Oc1ccc(-c2csc(Cc3nnc4n3CCCCC4)n2)cc1	-1%	>57
COc1ccc2nc(SCC(=O)Nc3ccc(S(=O)(=O)Nc4onc(C)c4C)cc3)[nH]c2c1	-2%	>57
Nc1ccccc1-c1nnc(SCc2ccccc2F)[nH]c1=O	-18%	>57
O=C1CCC(=O)N1c1ccccc1-c1ccccc1	-1%	>57
Cc1ccc(Nc2nc(N)nc(CN3CCN(Cc4ccc5c(c4)OCO5)CC3)n2)cc1	9%	>57
CC(C)C1N(S(=O)(=O)c2ccccc2)CCN1S(=O)(=O)c1ccccc1	-16%	>57
O=C(c1cccc(S(=O)(=O)N2CCOCC2)c1)N1CCCc2ccccc21	-23%	>57
Cc1n[nH]c(C)c1S(=O)(=O)N1CCOCC1	-18%	>57
COc1ccc(-n2c(=O)cnc3cnc(OC)nc32)cc1	-8%	>57
O=C1C2CCCN2C(c2cccs2)N1c1ccccn1 (centres undefined)	7%	>57
COc1ccc(S(=O)(=O)Nc2ccc(F)c(F)c2)cc1Cl	-7%	>57
O=C(O)C1C2C=CC3(O2)C1C(=O)N1c2ccccc2COC13 (centres undefined)	14%	>57
O=C(Nc1ccc2c(c1)OCO2)C1CCN(c2ccc(S(=O)(=O)N3CCOCC3)cc2)CC1	-22%	>57
COc1ccc(-c2nc3cnccn3c2Nc2ccc3c(c2)OCO3)cc1	-14%	>57
CCOC(=O)COc1ccc(Cl)cc1C1NC(=O)NC(C)=C1C(C)=O (centres undefined)	15%	.
CCOC(=O)C1=C(C)N=c2s/c(=C\c3cccn3C)c(=O)n2C1c1cccc(OC)c1OC (centres undefined)	?	.
COCCN1CCN(c2c(C)c(C)nc3cc(-c4cccc(OC)c4)nn23)CC1	25%	>57
CC1CC(=O)c2cnc(NCC3CCCO3)nc2C1 (centres undefined)	.	>57
COc1cccc(N2C(=O)C(CC(=O)Nc3ccc(F)cc3)N(C3CCCCC3)C2=O)c1 (centres undefined)	6%	>57
O=C(Nc1nnc(-c2ccccc2)o1)NC1CCCCC1	-7%	>57
CSc1ccccc1C(=O)NC1CC2CCC1C2 (centres undefined)	-9%	>57
Cc1ccc(CCNC(=O)C2CCN(C(=O)c3sccc3-n3cccc3)CC2)cc1	-1%	>57
CCOC(=O)c1ccc(N2C(=O)CC(NC3CCN(C(=O)c4cccc(Cl)c4)CC3)C2=O)cc1 (centres undefined)	?	>57
CCCn1c(-c2ccc(F)cc2)n[nH]c1=S	9%	>57
Cc1cccc(C(=O)OCC(=O)Nc2ccc(N3CCCCC3)cc2)c1O	-14%	>57
Nc1cnn(C2CCCO2)c(=O)n1 (centres undefined)	3%	>57
CN(C)CC[C@H](c1ccc(Br)cc1)c1ccccn1	3%[3.58 µM]	>57&>57&>57
O=c1ccc(=O)n2n1CC(O)C2	0%	>57
CSc1nsc(SCc2cnc(C)nc2N)n1	0%	>57
CCOc1ccccc1-n1c(SCC(N)=O)nc2ccccc2c1=O	13%	>57
O=C(NCCCN1CCOCC1)c1cc(-c2ccc(Br)cc2)on1	9%	>57
O=C(O)C1CCCCC1C(=O)Nc1nccs1 (centres undefined)	-4%	>57
CC(NC(=O)c1cccs1)C(c1cccs1)N1CCN(c2ccccc2)CC1 (centres undefined)	-5%	>57

In the list so far, 2 have bromine.
SMILES	Anthrax LT inh	Prx2 Sm inh
CN(C)CC[C@H](c1ccc(Br)cc1)c1ccccn1	3%[3.58 µM]	>57&>57&>57
O=C(NCCCN1CCOCC1)c1cc(-c2ccc(Br)cc2)on1	9%	>57

The list goes on:
SMILES	Anthrax LT inh	Prx2 Sm inh
Cc1c(C(=O)N2CCC3(CC2)OCCO3)oc2ccccc12	-10%	>57
CCOC(=O)c1sc(/N=C/N(C)C)c(C(=O)OCC)c1C	7%	>57
Nc1nc2c(c(=O)[nH]1)N[C@H](CCNc1ccc(C(=O)O)cc1)CN2	-3%[8 µM]	>57
CSc1ccc(NC(=O)[C@H]2CCCC[C@@H]2C(=O)O)cc1	-2%[8 µM]	>57
Cc1ccc(OCCN2C(=O)c3ccccc3C2=O)c(C)c1	-11%	>57
O=C(CN1C(=O)NC2(CCCC2)C1=O)Nc1cccc(-c2nnc3n2CCCCC3)c1	21%	>57
Cc1ccc(C(=O)COc2cccc(NC(=O)c3ccco3)c2)cc1	-16%	>57
CCOC(=O)N1CCN(S(=O)(=O)c2ccc3c(c2)SCC(=O)N3)CC1	.	>57
CCCC(=O)C1=C(O)C(C(=O)OC)C(C)(C)CC1=NC (centres undefined)	17%	.
O=C(Nc1ccc2oc(-c3ccccc3)nc2c1)c1cccnc1	2%	>57
CCCCCOc1ccc(NS(C)(=O)=O)cc1	-2%	>57
O=C(COc1ncnc2ccccc12)N1CCN(C(=O)c2ccco2)CC1	-4%	>57
COC(=O)CNC(=O)[C@@]1(Cc2ccccc2)C=C[C@@H](C)N1C(=O)c1ccccc1	1%	.
COCCNC(=O)C1(CC(C)C)C=CCN1C(C)=O (centres undefined)	6%	.
Cc1cc(NC(=O)CSc2ccc3nnc(-c4ccccn4)n3n2)no1	15%	>57
CC(=O)N1CCC[C@@]2(CCN(c3ccncc3)C2)C1	1%	>57
O=S(=O)(c1cccc2c(S(=O)(=O)N3CCCC3)cccc12)N1CCCC1	-7%	>57
Cc1c(C)[n+](=O)c(-c2ccco2)c(C)n1[O-]	-9%	>57
O=C(c1ccc2c(c1)OCCO2)C1CCN(S(=O)(=O)c2cccc(F)c2)CC1	-22%	>57
O=C1c2ccccc2S(=O)(=O)N1CC(O)COc1ccc(Br)cc1 (centres undefined)	-25%	.
COc1ccccc1NC(=O)Cn1c(=O)n2nc(C)nc2c2ccccc21	-3%	>57
N[C@H](CCP(=O)(O)O)C(=O)O	?	>57&>57&>57
Cc1nc(SCn2nnc3ccccc3c2=O)nc(C)c1C	0%	>57
C#CCN1C(C)=C(C(=O)OC)[C@@H](c2cccc([N+](=O)[O-])c2)C(C(=O)OCC)=C1C	3%	>57
O=C1CCCC=C1[C@H](O)CCCCBr	4%[1.6 µM]	.
CC1CCCN(S(=O)(=O)c2coc(C(N)=O)c2)C1 (centres undefined)	-12%	>57
COc1c(C)cc(Br)cc1C(=O)Nc1cccc(NC(=O)c2ccco2)c1	?	>57
CCOC(=O)C1(C)NC(c2ccc(OC)cc2OC)C2C(=O)N(c3cccc(OC)c3)C(=O)C21 (centres undefined)	-2%	>57
C=CCOC(=O)C1=C(C)Nc2nnnn2C1c1cccc(OC)c1OC (centres undefined)	5%	>57
COc1ccccc1CNc1nc(-c2ccoc2)nc2ccccc12	?	>57
O=C1c2ccccc2C(=O)N1CCc1nc(-c2ccccn2)no1	-12%	>57
O=C(O)CCCCCN=C1CCc2ccccc2N1	14%	>57
CN(C)/C=C1\N=C(c2ccc3c(c2)OCO3)OC1=O	-15%	.
O=C1NC(Nc2nc3ccccc3s2)(C(F)(F)F)C(=O)N1C1CCCCC1 (centres undefined)	?	>57
Cc1ccc(CNC(=O)c2ccc(Cn3nc(C)c(Cl)c3C)o2)cc1	-28%	>57
C=CCn1c2ccccc2c2nnc(SCC(=O)NC(C(=O)OC)C(C)C)nc21 (centres undefined)	10%	>57

3 structures already listed, sorted by length of the SMILES, rising:
SMILES	Anthrax LT inh	Prx2 Sm inh
Cc1cc(NC(=O)CSc2ccc3nnc(-c4ccccn4)n3n2)no1	15%	>57
O=C1NC(Nc2nc3ccccc3s2)(C(F)(F)F)C(=O)N1C1CCCCC1 (centres undefined)	?	>57
COc1cccc(N2C(=O)C(CC(=O)Nc3ccc(F)cc3)N(C3CCCCC3)C2=O)c1 (centres undefined)	6%	>57

The listing continues:
SMILES	Anthrax LT inh	Prx2 Sm inh
N#Cc1cccc(NC(=O)N2CC[C@@]3(CCCNC3)C2)c1	?	>57
N=c1c2c3c(sc2ncn1N)CCCCC3	-2%	>57
COc1ccccc1CNCc1cc(OC)c(OC)cc1OC	-14%	.
CCOc1ccc(C2N(c3cc(C)on3)C(=O)C3CCCN32)cc1OC (centres undefined)	-2%	>57
Cn1c(O)c(C=Nc2ccc3c(c2)CCC3)c(=O)n(C)c1=O	14%	.
CCNC(=O)N1C(=O)C2(OCCO2)c2ccccc21	4%	>57
CCN(CC)CCNS(=O)(=O)c1ccc(Cl)cc1	-15%	>57
CC(=O)Nc1ccc(S(=O)(=O)N2CCN(C(=O)N3CCOCC3)CC2)cc1	2%	>57
COc1ccc(NC(=O)c2ccco2)cc1NC(=O)c1cccs1	?	>57
CCn1c(Cc2ccc(OC)cc2)nnc1SCC(=O)NC1CCCCC1	9%	>57
O=C(CSc1nc2ncccc2[nH]1)NCc1ccccc1	7%	.
CC(=O)c1sc(NC(=O)c2ccc(Cn3cc(Br)cn3)o2)nc1C	14%	>57
CCOC(=O)C1CCN(CC(=O)Nc2c(C(=O)OC)[nH]c3cccc(C)c23)CC1	?	>57
O=S(=O)(CCc1nc2ccccc2o1)c1ccc(Cl)c(Cl)c1	-20%	.
CCOc1ccc(/C(O)=C2/C(=O)C(=O)N(CCOCCO)C2c2ccc(F)cc2)cc1 (centres undefined)	.	>57
CC(=O)c1c(N(C)C)ccnc1C(F)(F)F	-7%	>57
N#Cc1c(NC(=O)Cn2cnc3ccccc3c2=O)oc(-c2ccccc2)c1-c1ccccc1	?	>57
CN1CCN(c2ncc3nc(-c4cn(C)c5ccccc45)c(=O)n(CCC#N)c3n2)CC1	?	>57
CN1C(=O)N(S(=O)(=O)c2ccc(F)c(F)c2F)C(=O)C1(C)C	-7%	>57
CCCCC(c1nnnn1Cc1ccco1)N1CCN(c2nc3ccccc3s2)CC1 (centres undefined)	10µM*	>57
O=C(OCc1ccccc1)Oc1cncc(C(=O)O)c1	6%	>57
Nc1nonc1/C(=N/O)N1CCN(CCO)CC1	-10%	.
CSc1nsc(SCCN2C(=O)c3ccccc3C2=O)n1	-25%	>57
CCC(Sc1nc(N)c(NC(=O)c2ccc(OC)c(OC)c2)c(=O)[nH]1)C(=O)OC (centres undefined)	1%	>57
CN(C)c1ccc(NC(=O)c2cccc(N3C(=O)CCC3=O)c2)cc1	-36%	.
COc1ccc(CN(C)CCc2ccccn2)cc1OC	4%	?
CC(C)(C)c1ccc2c(c1)N(CC(=O)O)C(=O)CO2	?	>57
Cc1ccc2c(c1)N(CCC(=O)NC1CC1)C(=O)C(C)O2 (centres undefined)	-13%	>57
CCC1Oc2ccc(C)cc2N(CC(=O)N2CCN(c3ccc(F)cc3)CC2)C1=O (centres undefined)	-17%	>57
O=C1C=C(O)CC(c2ccc(Cl)cc2)C1 (centres undefined)	-13%	.
CCc1nc(N)c(C#N)c(-c2cccnc2)c1C	3%	>57
COc1ccc(Oc2ncc3nc(-c4ccc(OC)cc4)c(=O)n(C)c3n2)cc1	?	>57
Cc1cc(C(=O)CSc2nnc(-c3ccc(Cl)cc3)n2CC2CCCO2)c(C)n1C (centres undefined)	6%	>57
O=C(NCc1ccccn1)c1c(Cl)cccc1Cl	?	>57
COc1cc(C2N(c3ccccc3)CCN2c2ccccc2)cc(OC)c1OC	?	>57
CNC(=O)N(O)C1N(C)C(=O)N(CC(=O)OC)C1(C)C (centres undefined)	-2%	>57
CCC(=O)Nc1ccc(NC(=O)c2cccc(OC)c2)nc1	5%	>57
COc1ccc(C(=O)NCCNC(C)=O)cc1S(=O)(=O)NCc1ccc(Cl)cc1	?	>57
CC(=O)Nc1ccc(S(=O)(=O)N2CCN(c3cc(C)nc4ccccc34)CC2)cc1	?	>57
CCOC(=O)c1cc(NC(=O)N2CCCCC2)c(C)nc1C	-1%	>57
O=C(NCC1CCCCC1)C1CCCN(C(=O)NC2CCCCC2)C1 (centres undefined)	5%	>57
COc1cc(-c2nc(Cc3c(F)cccc3Cl)no2)cc(OC)c1OC	-2%	>57
Cc1onc(-c2ccccc2)c1C(=O)NCc1ccc2c(c1)OCO2	-1%	.
COC(=O)C1C2C=CC3(CN(Cc4ccco4)C(=O)C13)O2 (centres undefined)	0%	>57
CCCS(=O)(=O)N1CCCC(C(=O)NCCCN(Cc2ccccc2)C(C)C)C1 (centres undefined)	-29%	>57
COc1cccc(NC(=O)c2ccccc2SC)c1	-15%	>57
CCS(=O)(=O)N1CCC(C(=O)NCC2CCCO2)CC1 (centres undefined)	5%	>57
COC1C(O)COC1/C=C/c1ccccc1 (centres undefined)	3%[8 µM]	.
CCN1CCN(Cc2ccccc2NC(=O)Nc2ccc(C)cc2)CC1	-7%	>57
Cc1cc(N(C)C)c(C#N)c(N2CCOCC2)n1	.	>57
